Screens deposited in PubChem BioAssay by National Center for Advancing Translational Sciences (NCATS).
Vaccinia Venus = qHTS for Stage-Specific Inhibitors of Vaccinia Orthopoxvirus: Venus Reporter Primary qHTS. AID 720580, 2013. 330,000 tested, 0.46% active. Potency, µM (doses to about 36.5 µM), inactives show top-dose activity change, negative = inhibition, most hits filed as inhibitors. Vaccinia virus Venus reporter expression, fluorescence; active means well fitted inhibition curve with a large enough effect; inconclusive means small, poorly fitted or top-dose-only effect; inactive means no such curve, though single readings can be large or run the other way; tested in A549 cells; note: nearly all actives have a fitted effect of over 30% in size; inactives centre near -10
VACV mCherry inh = qHTS for Stage-Specific Inhibitors of Vaccinia Orthopoxvirus: mCherry Reporter Primary qHTS | Vaccinia virus mCherry reporter infection, fluorescence; about a quarter of the inactives have no number | Potency, µM (doses to about 36.5 µM), for the others: top-dose activity change, negative = inhibition, most hits filed as inhibitors | 310,000 tested, 0.63% active | AID 720579, 2013; active = well fitted inhibition curve with a large enough effect; inconclusive = small, poorly fitted or top-dose-only effect; inactive = no such curve, though single readings can be large or run the other way; tested in A549 cells; note: nearly all actives have a fitted effect of over 35% in size; inactives centre near -10
The depositor's hits bear a star; & = joins results of further samples; [ ] = remark or other dose. % is set by controls: 0 for no effect and ±100 for the full control effect; potency is the fitted concentration of half-maximal effect.

`Cc1ccc(OC/C(=N\O)C(C)(C)C)c([N+](=O)[O-])c1` gave Vaccinia Venus -28.3% and VACV mCherry inh -6.0%.
`O=C(c1cc2cc(Br)ccc2o1)N1CCCCC1` gave Vaccinia Venus -14.2% and VACV mCherry inh inactive.
`O=C(NC(Oc1ccccc1)C(Cl)(Cl)Cl)c1ccccc1` (centres undefined) gave Vaccinia Venus -16.9% and VACV mCherry inh inactive.
`C=CCN(C(=O)CN1CCOCC1)c1nc(C)c(-c2ccccc2)s1` gave Vaccinia Venus -23.5% and VACV mCherry inh -15.1%[1.46 µM].
Screening COc1ccc(C2=NN(c3ccccc3)C(c3cccs3)C2)cc1 (centres undefined) returned Vaccinia Venus -8.5% and VACV mCherry inh -1.2%.
For Cc1ccc(CNC(=O)CSC2=Nc3ccccc3N=C(c3ccc(F)cc3)C2)cc1 the results were Vaccinia Venus -6.7% and VACV mCherry inh -10.0%.
Screening CC(=O)c1ccc(N2CCN(c3ncnc4c3cnn4C)CC2)cc1 returned Vaccinia Venus -9.4% and VACV mCherry inh -17.8%.
Screening NC(=O)C1(c2ccccc2)CCOCC1 returned Vaccinia Venus 19.7%.
`Cc1ccc(-c2c(C)n3c4c(=O)n(C)c(=O)n(C)c4nc3n2CCO)cc1` gave Vaccinia Venus -24.4% and VACV mCherry inh inconclusive.
For COc1nc(NC(C)C)nc(N(C#N)CN2C(=O)c3ccccc3S2(=O)=O)n1 the results were Vaccinia Venus -20.1% and VACV mCherry inh inconclusive.
For CCn1c(O)c(N=NC(=O)c2cccnc2)c2cc(Br)ccc21 the results were Vaccinia Venus -0.7% and VACV mCherry inh -19.0%.
`Cc1cccc(-c2ccc3[nH]c4c(c3c2)CCN2C[C@@H]([C@H](C)O)[C@@H](N(C)C(=O)Nc3ccc(F)cc3)C[C@@H]42)c1` gave Vaccinia Venus inconclusive and VACV mCherry inh -26.3%.
Screening COc1cccc(C(=O)NC(=S)Nc2cccnc2)c1 returned Vaccinia Venus -7.2% and VACV mCherry inh inactive.
Screening C(=N\n1cnnc1)/c1cccc(OCCOc2ccccc2)c1 returned Vaccinia Venus -5.5%.
COc1ccccc1CNC(=O)C1CCCN(C(=O)c2cnn(-c3ccc(F)cc3)c2-n2cccc2)C1 (centres undefined) was read as Vaccinia Venus -4.3% and VACV mCherry inh -8.8%.
Cc1cc(OCC(=O)Nn2cnnc2)c(C)cc1Br was read as Vaccinia Venus -10.6%.
For CCOC(=O)c1cnc2c(C)c(Cl)ccc2c1NCCc1ccccc1 the results were Vaccinia Venus 1.6% and VACV mCherry inh 6.0%.
CN(CC(=O)Nc1ccc(F)cc1)C(=O)COC(=O)C1=COCCO1 was read as Vaccinia Venus -1.8% and VACV mCherry inh -7.2%.
O=C(Nc1cccc(Cl)c1)OC1CCCCc2cccnc21 (centres undefined) was read as Vaccinia Venus -9.2% and VACV mCherry inh inactive.
`Cc1ccccc1SCC(=O)NCC1(N2CCCCC2)CCCCC1` gave Vaccinia Venus -18.8% and VACV mCherry inh -19.6%.
`COc1cccc(-c2nc(NCCc3c[nH]c4ccc(OC)cc34)c3ccccc3n2)c1` gave Vaccinia Venus -18.7% and VACV mCherry inh -19.6%.
`CCOc1ccc(-n2c(CCc3ccccc3)n[nH]c2=S)cc1` gave Vaccinia Venus -10.9% and VACV mCherry inh -2.5%.
Screening CC(C)CC(=O)c1c[nH]c(C(=O)N2CCN(Cc3ccccc3)CC2)c1 returned Vaccinia Venus -13.6% and VACV mCherry inh inactive.
`CC1CN(C(=O)CCS(=O)(=O)c2ccccc2)CC(C)O1` (centres undefined) gave Vaccinia Venus -13.2% and VACV mCherry inh -19.3%.

Fetched by compound from the list above, five records:
`CC1CN(C(=O)CCS(=O)(=O)c2ccccc2)CC(C)O1` (centres undefined) gave Vaccinia Venus -13.2% and VACV mCherry inh -19.3%.
Cc1cc(OCC(=O)Nn2cnnc2)c(C)cc1Br was read as Vaccinia Venus -10.6%.
`CCOc1ccc(-n2c(CCc3ccccc3)n[nH]c2=S)cc1` gave Vaccinia Venus -10.9% and VACV mCherry inh -2.5%.
O=C(Nc1cccc(Cl)c1)OC1CCCCc2cccnc21 (centres undefined) was read as Vaccinia Venus -9.2% and VACV mCherry inh inactive.
`COc1cccc(-c2nc(NCCc3c[nH]c4ccc(OC)cc34)c3ccccc3n2)c1` gave Vaccinia Venus -18.7% and VACV mCherry inh -19.6%.

Other records follow:
CC(C)C[C@@H](CSc1ccccc1)N1CCN(CC(C)C)CCC1=O was read as Vaccinia Venus -8.5%&-22.8% and VACV mCherry inh -7.0%.
Screening Cc1cccc(-n2c(O)c(C=Nc3ccc(O)cc3)c3ccccc3c2=O)n1 returned Vaccinia Venus -4.7% and VACV mCherry inh -8.8%.
`Cc1cc(C)nc(NC(=O)C2c3ccccc3Oc3ccccc32)n1` gave Vaccinia Venus -14.0% and VACV mCherry inh -8.1%.
Cc1ccc(CN2CCC(c3cc(-c4ccc(Cl)cc4)n[nH]3)CC2)cc1 was read as Vaccinia Venus -14.4% and VACV mCherry inh inactive.
For CCC(CC)NC(=O)Cc1ccc(S(=O)(=O)N2CCOCC2)s1 the results were Vaccinia Venus -5.9% and VACV mCherry inh -13.8%.
COc1cc(C(=O)NCCN=C2NS(=O)(=O)c3ccccc32)cc(OC)c1OC was read as Vaccinia Venus -1.9% and VACV mCherry inh -2.9%.
For COc1ccc(N=c2scc(C)n2CCCN2CCCC2=O)cc1 the results were Vaccinia Venus 1.6% and VACV mCherry inh -14.8%.
Cn1cc(S(=O)(=O)N2CCOCC2)cc1C(=O)Nc1ccc(Cl)cc1 was read as Vaccinia Venus -10.0% and VACV mCherry inh -2.7%.
Cc1ccccc1N1C(=O)CC(=O)N(c2ccccc2C)C1=O was read as Vaccinia Venus 2.7% and VACV mCherry inh -12.1%.
`Cc1cccc(NC(=S)NNC(=O)c2ccc3c(c2)OCO3)c1` gave Vaccinia Venus -11.9% and VACV mCherry inh -20.4%.
CC(C)(C)OC(=O)NCc1ccc(CNC(=O)c2ncn(Cc3ccccc3)c2C(=O)NCc2ccc(CNC(=O)OC(C)(C)C)cc2)cc1 was read as Vaccinia Venus -7.3% and VACV mCherry inh -11.8%.
`O=C1CCN(Cc2ccc(Br)cc2)CCN1CCO` gave Vaccinia Venus -7.7% and VACV mCherry inh inactive.
`O=C(NC(=S)N1CCN(c2nc(-c3ccccc3)cs2)CC1)c1cccnc1` gave Vaccinia Venus -25.0% and VACV mCherry inh -25.5%.
Screening N#C/C(=C\c1ccc(-c2cc(Cl)ccc2Cl)o1)C(=O)Nc1ccccc1C(=O)O returned Vaccinia Venus -1.2% and VACV mCherry inh -5.9%.
`Cc1cn(CC(=O)NCCc2ccccn2)c(=O)[nH]c1=O` gave Vaccinia Venus 3.2% and VACV mCherry inh inactive.
CCOc1cc(/C=C2\SC(=Nc3ccc(CC)cc3)NC2=O)ccc1OCC(=O)O was read as Vaccinia Venus -17.1% and VACV mCherry inh -15.0%.
Cc1cc(NC(=O)c2ccc3c(c2)OCO3)no1 was read as Vaccinia Venus -11.6% and VACV mCherry inh -9.2%.
COc1cc2c(-c3ccccc3O)nc3c(c(C)nn3-c3ccccc3)c2cc1OC was read as Vaccinia Venus -15.2%&-21.1% and VACV mCherry inh -13.0%.
For CCC1(C)Cc2c(sc(NC(=S)NC(=O)c3ccccc3)c2C#N)CO1 (centres undefined) the results were Vaccinia Venus -13.3% and VACV mCherry inh inactive.
`CC1(C)CC2c3cccc(C(=O)O)c3C(=O)N2c2c1ccc1ccccc21` (centres undefined) gave Vaccinia Venus -10.4% and VACV mCherry inh -13.4%.
Screening COCCn1c(SCC(=O)Nc2ccc3c(c2)OCCO3)nnc1C(C)C returned Vaccinia Venus -3.6% and VACV mCherry inh -13.0%.
Screening CN(C)CCN(Cc1ccccc1)S(=O)(=O)c1ccc2c(c1)n(C)c(=O)c(=O)n2C returned Vaccinia Venus 5.3% and VACV mCherry inh inconclusive.
For O=C(NCc1ccc(OC(F)(F)F)cc1)C1CC2Cn3c(nc4ccccc43)C2N1Cc1ccccc1 (centres undefined) the results were Vaccinia Venus -21.6% and VACV mCherry inh -17.7%.
Screening COc1cc2oc3cc(C#Cc4ccc(N)cc4)ccc3c(=O)c2cc1OC returned Vaccinia Venus inconclusive and VACV mCherry inh inconclusive.
Screening CCC(C)NC(=O)CSc1nnc(-c2ccc(C)cc2)c(-c2ccc(C)cc2)n1 (centres undefined) returned Vaccinia Venus -7.5% and VACV mCherry inh -13.8%.
`O=C1CN=C(c2ccccc2Cl)c2cc(Cl)ccc2N1Cc1cccc(Cl)c1` gave Vaccinia Venus -14.0% and VACV mCherry inh -13.9%.
`Cc1ccc(N2CC(NS(=O)(=O)c3cccs3)CC2=O)cc1C` (centres undefined) gave Vaccinia Venus -10.4% and VACV mCherry inh inactive.
CC12CC(NC(=O)N1c1cccc(C(=O)N3CCN(c4ccccc4F)CC3)c1)c1ccccc1O2 (centres undefined) was read as Vaccinia Venus -25.1% and VACV mCherry inh -13.1%.
`CCOC(=O)c1ccc(NC(=S)NN)cc1` gave Vaccinia Venus -20.4% and VACV mCherry inh -24.4%.
Screening O=C(Nc1ccc(Cl)cc1)Nc1ccccc1CC[N+](=O)[O-] returned Vaccinia Venus -7.1% and VACV mCherry inh -13.2%.
For O=C(Nc1ccccc1)C1=C[C@@H](C2CCCCC2)C[C@@H](OCc2ccc(CO)cc2)O1 the results were Vaccinia Venus -2.5% and VACV mCherry inh -28.1%.
Screening CC(C)OC(=O)c1cccc(C(=O)O)n1 returned Vaccinia Venus -6.2% and VACV mCherry inh -16.4%.
`COc1ccc(-n2c(SCC(N)=O)nnc2-c2ccc(NS(=O)(=O)c3ccc(C)cc3)cc2)cc1` gave Vaccinia Venus -3.6% and VACV mCherry inh -2.1%.
CC(C)N(C)C1CCN(S(=O)(=O)c2ccc(-c3ccc(=O)[nH]n3)s2)CC1 was read as Vaccinia Venus -9.4% and VACV mCherry inh -12.4%.
Screening CCCc1nnc(NC(=O)CCN2C(=O)c3ccccc3C2=O)s1 returned Vaccinia Venus -7.9% and VACV mCherry inh -5.8%.
Screening COCCc1nn2c(=O)cc(COC(=O)C(c3ccccc3)c3ccccc3)nc2s1 returned Vaccinia Venus -10.7% and VACV mCherry inh -18.8%.
For CCCCn1c(-c2ccccc2)cnc1SCC(=O)NCCc1ccc(OC)c(OC)c1 the results were Vaccinia Venus -26.0% and VACV mCherry inh -7.4%.
Screening COC(=O)c1ccc(NC(=O)CCc2c(C)nc3c(c(C)nn3C(C)(C)C)c2C)cc1 returned Vaccinia Venus -26.8% and VACV mCherry inh -26.2%.
For CCOc1ccc(S(=O)(=O)Nc2ccc(S(=O)(=O)N3CCCC3)cc2)cc1 the results were Vaccinia Venus -13.2% and VACV mCherry inh -21.7%.
CCc1nc(N(CC)CC)c2oc3ccccc3c2n1 was read as Vaccinia Venus -29.6%.
For COC(CN(C(=O)CCl)C(C(=O)NC1CCCCC1)c1ccc(C)cc1)OC (centres undefined) the results were Vaccinia Venus -8.3% and VACV mCherry inh -4.0%.
`COc1ccc2c(c1)OC(=O)CC2c1cc(OC)c(OC)c(OC)c1` (centres undefined) gave Vaccinia Venus -15.8% and VACV mCherry inh 0.0%.
For CCc1ccccc1NC(=S)N(CCOC)C(C)c1ccco1 (centres undefined) the results were Vaccinia Venus -11.5% and VACV mCherry inh inactive.
Screening Cc1ccc(S(=O)(=O)NN2C(=O)c3ccccc3NC2c2ccccc2)cc1 (centres undefined) returned Vaccinia Venus -14.3% and VACV mCherry inh -1.0%.
`COC(=O)[C@@]1(C)CC[C@]2(C)CC[C@@]3(C)C(=CC(=O)C4[C@@]5(C)CC[C@H](O)C(C)(C)[C@@H]5CC[C@]43C)[C@H]2C1` (some centres undefined) gave Vaccinia Venus -23.0% and VACV mCherry inh -6.5%.
`CC(C)N(C(=O)c1ccc(Cc2cn(C)c3ccccc23)nc1)C(C)C` gave Vaccinia Venus -10.7% and VACV mCherry inh 1.2%.
CCN(CC)C(=O)Cn1cc(S(=O)(=O)CC(=O)NCc2ccccc2)c2ccccc21 was read as Vaccinia Venus -17.1% and VACV mCherry inh -16.4%.
Screening CCCS(=O)(=O)c1nc(S(=O)(=O)c2ccc(C)cc2)c(NCCCN2CCCC2=O)s1 returned Vaccinia Venus -7.3% and VACV mCherry inh -14.9%.
`Cc1ccsc1C1C2=C(CC(C)(C)CC2=O)Nc2ncnn21` (centres undefined) gave Vaccinia Venus -17.9% and VACV mCherry inh -19.1%.
`Cc1cccc(C)c1Nc1nnc(SCC(=O)NC2CCS(=O)(=O)C2)s1` (centres undefined) gave Vaccinia Venus -13.4% and VACV mCherry inh inactive.
For CC(C)CC1NC(=O)N(CC(=O)Nc2ccc3c(c2)CCC3)C1=O (centres undefined) the results were Vaccinia Venus -2.3% and VACV mCherry inh -1.0%.
Screening NC(=O)CC(NC(=O)c1ccccc1)c1ccc(NCc2ccccc2)c([N+](=O)[O-])c1 (centres undefined) returned Vaccinia Venus -16.8% and VACV mCherry inh inactive.
Screening Cc1ccc(-c2nnc(N3CC(C)OC(C)C3)c3ccccc23)cc1 (centres undefined) returned Vaccinia Venus -17.9% and VACV mCherry inh -20.2%.
Cc1cc(C(=O)N(C2CCCCC2)C2CCCCC2)no1 was read as Vaccinia Venus -11.3% and VACV mCherry inh -18.9%.

The order is random, and some 0.82% of all compounds hit somewhere here.
